# Screens deposited in PubChem by several laboratories.
# Yeast UUG start: modulators of start codon recognition fidelity in yeast; S. cerevisiae UUG-firefly luciferase reporter, luminescence/redox ratio; activity score, % at 18.7 µM; 350,000 compounds, 0.13% hits; AID 602363;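 active = replicate mean at a twofold rise or more, about +100% in these data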;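 also: firefly luciferase made from a UUG start codon reports start codon fidelity; reporter light over untreated wells divided by growth signal over untreated wells; some hits fall short of that in this replicate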
# CSC inhib: blocks cancer stem cells | cancer stem cell-like cells viability, luminescence | inhibition, % at 7.5 µM | 300,000 compounds, 1.1% hits | AID 2717;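 active = mean at 75% or more and at least half the replicates too; tested in HMLE shEcad cells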;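 also: 0% = median of negative and 100% = median of positive control wells; the first replicate is given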
# Env fusion inh: blocks HIV Env-driven cell-cell fusion; inhibition, % at 12.3 µM; HeLa-JRFL Env/CEM21 cell fusion, luciferase; 360,000 compounds, 1.1% hits;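 active = mean replicate inhibition score of at least 50 and every replicate individually at or above 50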;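 also: 0% = plate neutral controls and 100% = maraviroc near 300 nM; one replicate is shown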
# MT1-MMP act inh: inhibitors of human MT1-MMP activation; P50281; HT1080 RFP-PRO-GFP cells, GFP/RFP ratio fluorescence, overnight; percent of plate control window, DMSO zero; GFP/RFP ratio change, % at 20 µM; 360,000 compounds, 0.061% hits; AID 651647;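 active = GFP/RFP ratio change of at least 30% with cell ATP level not reduced by more than half and red fluorescence within 50% of control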; also: strong numbers were not always called active
#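 Material – HT1080 RFP-PRO-GFP cells · Control set – DMSO wells and RFP-L50D-GFP cells · Incubation – overnight cell settling, then overnight compound exposure, 37 °C, 5% CO2 · Compound dosing – single-point 20 µM compound, 1% DMSO · Read-out – GFP/RFP fluorescence ratio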
# Rce1 inhib: yeast Ras-converting enzyme inhibition | Q03530 | yeast membranes, quenched prenylated peptide cleavage fluorescence | calls only | 290,000 compounds, 0.27% hits;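 active = fall in fluorescence gain of 50% or more versus controls, with final raw signal at or below 3038400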;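 also: plate controls were neutral control wells for no effect and wells lacking membranes for full effect; tested at 10 µM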
# eIF4H inh: inhibitors of RNA binding by human eIF4H; Q15056; eIF4H fluorescence polarization binding assay; inhibition, % at 35 µM; 290,000 compounds, 0.94% hits; AID 2012;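 active = 50% or more with normal probe brightness, or confirmed in later tests; about a fifth of its hits are not listed in these tables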;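 also: calls also rest on retests at 20 µM and on dose response follow-up; 0% = protein and probe with vehicle and 100% = probe without protein; strong numbers were not always called active; many hits fall short of the cut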
# PABP FP inh: blocks human PABP binding to poly(A) RNA; P11940; AID 2014; inhibition, % at 35 µM; 290,000 compounds, 1% hits; fluorescence polarization;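 active = 50% or more with normal probe brightness, or confirmed in later tests; about a fifth of its hits are not listed in these tables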;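 also: calls also rest on retests at 20 µM and on dose response follow-up; controls were probe without protein and protein plus probe with vehicle; some compounds called inactive have numbers as strong as hits; many hits fall short of the cut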
# Target sequence (P11940 whole entry, looked up): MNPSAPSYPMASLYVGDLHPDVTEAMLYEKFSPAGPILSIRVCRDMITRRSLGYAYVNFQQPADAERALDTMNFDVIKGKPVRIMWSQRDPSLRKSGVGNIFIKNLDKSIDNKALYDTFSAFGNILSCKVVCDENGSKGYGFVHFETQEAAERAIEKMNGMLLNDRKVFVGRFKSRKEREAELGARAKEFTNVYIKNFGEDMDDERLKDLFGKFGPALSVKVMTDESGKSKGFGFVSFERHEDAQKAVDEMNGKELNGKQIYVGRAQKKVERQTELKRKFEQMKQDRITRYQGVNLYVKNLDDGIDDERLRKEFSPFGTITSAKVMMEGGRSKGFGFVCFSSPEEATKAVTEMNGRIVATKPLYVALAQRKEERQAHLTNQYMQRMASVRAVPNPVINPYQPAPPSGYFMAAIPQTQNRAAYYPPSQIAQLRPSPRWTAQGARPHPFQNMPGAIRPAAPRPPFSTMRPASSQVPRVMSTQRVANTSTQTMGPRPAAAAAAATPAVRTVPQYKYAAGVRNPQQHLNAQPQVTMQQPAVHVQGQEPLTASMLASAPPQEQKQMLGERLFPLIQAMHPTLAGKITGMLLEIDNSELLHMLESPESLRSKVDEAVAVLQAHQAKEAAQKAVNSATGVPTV
# eIF4H inh retest: recorded beside eIF4H inh, whose call it bears; inhibition, %; compound at 20 µM; confirmation average;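 mean of two retest wells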
# PABP FP inh retest: recorded beside PABP FP inh, whose call it bears; inhibition, %; compound at 20 µM; confirmation repeats;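 mean of two retest wells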
# MT1-MMP act inh RFP: also measured in MT1-MMP act inh; calls as there; RFP signal change, %; measured here: RFP expression control read;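 0 = vehicle wells; hits needed this value within 50% of zero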
# Starred values were filed as active, the others as inactive; i = inactive; nt = no result given. Some of the compounds tested (hit frequency here may not be typical).
SMILES,Yeast UUG start,CSC inhib,Env fusion inh,MT1-MMP act inh,MT1-MMP act inh RFP,Rce1 inhib,eIF4H inh,PABP FP inh,others
CCc1cccc(C)c1NC(=O)CSc1ncn[nH]1,-23,-7,-16,0,-2,i,4,-17,
O=C(Nc1cc2c3c(c1)C1CCCC1CN3CC1CCCC21)c1ccccc1 (stereo not given),-7,-14,40,-8,-7,i,10,29,
CCOC(=O)CNC(=O)CSc1nnc(NC(=O)c2ccc(S(=O)(=O)N3CCOCC3)cc2)s1,-12,4,-15,0,3,i,13,6,
COc1ccc(S(=O)(=O)NCc2ccccn2)cc1Br,-6,3,-45,-3,2,i,2,0,
CCc1ccc(C(=O)COC(=O)c2cc([N+](=O)[O-])ccc2NCCO)cc1,nt,11,31,5,-10,i,-10,7,
CCC(C)(C(=O)NC1CCCCC1)N(C(=O)C1CCC(=O)N1)c1ccc(C)cc1 (stereo not given),-10,4,nt,-2,3,nt,-2,9,
CCOC(=O)CSc1cc(-c2ccccc2)nc2ncnn12,1,1,26,-1,-2,i,-8,0,
CC1CC(C)CN(CCCNS(=O)(=O)c2cc(Br)cc3c2N(C(=O)C2CC2)CC3)C1 (stereo not given),-8,29,1,-4,0,i,-7,-4,
Cc1ccc(C)c(OCCC(=O)NNC(=O)c2ccccc2F)c1,nt,-12,nt,8,-1,i,nt,nt,
CC1CCCCN1CCNC(=O)c1cc2c(-c3ccccc3F)nn(C)c2s1 (stereo not given),-14,8,-15,1,10,i,0,2,
CC(=O)[C@@]1(O)CC[C@H]2[C@@H]3C[C@H](C)C4=CC(=O)CC[C@]4(C)[C@H]3CC[C@@]21C,-13,-4,i,2,-2,i,-11,-12,
Cc1cccc(C(=O)N(Cc2nc3ccccc3c(=O)[nH]2)C2CCCC2)c1,nt,-16,-13,-1,-2,i,-4,5,
COc1ccc2cc(C(C)C(=O)N3CCC(C)CC3)ccc2c1 (stereo not given),2,23,11,-1,-5,i,-18,-3,
CCOC(=O)N1CCN(C(=O)C2CCCN(S(=O)(=O)c3cc(C)ccc3OC)C2)CC1 (stereo not given),5,-29,nt,2,0,i,-9,5,
CCOC(=O)c1c(C)[nH]c(C(=O)COC(=O)CNC(=O)C2CCCCC2)c1C,-32,-6,-421,-5,0,i,-1,0,

# The last 6 records of the part before are carried over, then new ones follow:
SMILES,Yeast UUG start,CSC inhib,Env fusion inh,MT1-MMP act inh,MT1-MMP act inh RFP,Rce1 inhib,eIF4H inh,PABP FP inh,others
CC1CCCCN1CCNC(=O)c1cc2c(-c3ccccc3F)nn(C)c2s1 (stereo not given),-14,8,-15,1,10,i,0,2,
CC(=O)[C@@]1(O)CC[C@H]2[C@@H]3C[C@H](C)C4=CC(=O)CC[C@]4(C)[C@H]3CC[C@@]21C,-13,-4,i,2,-2,i,-11,-12,
Cc1cccc(C(=O)N(Cc2nc3ccccc3c(=O)[nH]2)C2CCCC2)c1,nt,-16,-13,-1,-2,i,-4,5,
COc1ccc2cc(C(C)C(=O)N3CCC(C)CC3)ccc2c1 (stereo not given),2,23,11,-1,-5,i,-18,-3,
CCOC(=O)N1CCN(C(=O)C2CCCN(S(=O)(=O)c3cc(C)ccc3OC)C2)CC1 (stereo not given),5,-29,nt,2,0,i,-9,5,
CCOC(=O)c1c(C)[nH]c(C(=O)COC(=O)CNC(=O)C2CCCCC2)c1C,-32,-6,-421,-5,0,i,-1,0,
COc1ccc(C(OC(=O)c2ccco2)C(=O)NC2CCCC2)cc1 (stereo not given),-12,-8,-20,0,4,i,-10,1,
COc1cc2nc(N3CCN(c4cc(C)ccc4C)CC3)nc(N)c2cc1OC,-15,106*,-4,-25,-17,i,-9,-25,
CCOc1ccccc1NS(=O)(=O)c1ccc2[nH]c(=O)ccc2c1,-18,3,28,3,3,i,-9,9,
CC(C)CCNC(=O)CCCOc1cc(=O)n(C)c2ccccc12,0,8,-237,12,6,i,-4,4,
CCc1noc(C)c1C(=O)OCC(=O)N1CCc2ccccc21,-11,nt,-1,0,5,nt,nt,nt,
Cn1cc(C(=O)N/N=C/c2ccc([N+](=O)[O-])cc2)c2ccccc21,9,6,28,5,4,i,-15,-17,
CCCC(=O)OC/C(O)=C(\C#N)c1nc2ccccc2[nH]1,-28,0,-14,-6,1,i,62,5,eIF4H inh retest=-14;PABP FP inh retest=10
CCCNC(=O)/C(=C/c1cn(S(=O)(=O)N(C)C)c2ccccc12)NC(=O)c1ccc(OC)cc1,nt,-8,1,2,-1,i,-14,-10,
CC(=O)N1CCC(=NNc2ccc(S(N)(=O)=O)cc2[N+](=O)[O-])CC1,-16,-15,1,10,4,i,0,4,
COc1ccc(/C=C/C(=O)NNC(=O)c2cc(C)oc2C)cc1,-14,nt,nt,4,3,i,nt,nt,
CN1C(=O)[C@@H]2[C@H](C1=O)[C@@H]1C(=O)Nc3ccccc3C(=O)N1[C@@H]2c1ccc(Br)cc1,-13,-8,23,6,7,i,nt,nt,
Cc1ccccc1NC(=O)NC1(C(=O)N2CCCC2)CCCCC1,-3,-3,11,-1,6,i,-6,-3,
CCN(CCNC(=O)C1CC(=O)N(CCc2ccccc2)C1)c1ccccc1 (stereo not given),-1,14,nt,-7,-3,i,1,-2,
CN1CC(=O)N(CC(=O)NCc2ccc(F)cc2)c2ccccc2C1=O,-12,-10,nt,5,5,i,-1,-14,
COc1ccc(Cl)cc1C(=O)Nc1cccnc1,-17,8,-31,-1,3,i,6,11,
O=C1OCCC1Sc1nnc(-c2cccs2)n1Cc1ccccc1 (stereo not given),nt,-3,nt,2,4,i,-10,-5,
COc1cccc(NC(=O)c2ccco2)c1,-26,-9,nt,-2,3,i,-1,2,
CC(=O)c1c(C)[nH]c(C(=O)N(C)C(c2ccccc2)c2ccccc2)c1C,nt,-27,-1,-12,-7,i,-4,0,
O=C(COC(=O)c1ccc(Oc2ccccc2)cc1)Nc1nnc(-c2ccccc2)o1,0,19,-62,3,-1,i,22,0,
COc1cccc(C(=O)Nc2ccccc2C(=O)N2CCCC2)c1,-11,-2,-21,-1,-1,i,-5,7,
COCCNC(=O)C(OC(=O)c1cccs1)c1ccc(F)cc1 (stereo not given),nt,-13,7,1,4,i,-6,-2,
COc1ccc(CCNC(=O)COC(=O)/C=C/c2cccs2)cc1OC,nt,-14,9,0,3,i,-2,3,
CCC(C)(C)c1nnc(NC(=O)c2ccc([N+](=O)[O-])cc2)s1,-19,2,-15,4,0,i,-6,8,
CN1CCCC(OC(=O)c2cc(Br)ccc2Cl)C1 (stereo not given),-5,0,nt,7,4,i,4,6,
CC(C)Cc1nnc(NC(=O)CCC(=O)N2CCCCC2)s1,4,-24,-6,-2,-1,i,-10,2,
CCOC(=O)c1ccc2ncc(C(=O)OCC)c(Nc3ccc(N4CCOCC4)cc3)c2c1,nt,40,15,-25,-19,i,-4,8,
Nc1c(-c2cccc(Cl)c2)cnn1-c1cccc([N+](=O)[O-])c1,-12,7,25,2,-2,i,-6,7,
CCOC(=O)c1ccc(NC(=O)CCc2nnc3ccc(N4CCN(C)CC4)nn23)cc1,-26,-16,-8,-2,-1,i,13,11,
CC(C)(C)NC(=O)COC(=O)c1ccc(F)cc1Cl,nt,-4,6,0,-2,i,2,-4,
O=C1CC(N2CCC(O)(c3ccc(Br)cc3)CC2)C(=O)N1c1ccc(Cl)cc1 (stereo not given),nt,-13,-8,6,-6,i,-5,-11,

# A stretch taken from the entries so far:
SMILES,Yeast UUG start,CSC inhib,Env fusion inh,MT1-MMP act inh,MT1-MMP act inh RFP,Rce1 inhib,eIF4H inh,PABP FP inh,others
O=C1OCCC1Sc1nnc(-c2cccs2)n1Cc1ccccc1 (stereo not given),nt,-3,nt,2,4,i,-10,-5,
COc1cccc(NC(=O)c2ccco2)c1,-26,-9,nt,-2,3,i,-1,2,

# New compounds follow
SMILES,Yeast UUG start,CSC inhib,Env fusion inh,MT1-MMP act inh,MT1-MMP act inh RFP,Rce1 inhib,eIF4H inh,PABP FP inh,others
O=C(Nc1ccc(SC(F)F)cc1)c1cc(-c2ccncc2)nc2ccccc12,-9,nt,-19,-1,-6,nt,nt,nt,
CCOC(=O)C1CCN(C(=O)CN2C(=O)CSc3ccc(S(=O)(=O)N4CCOCC4)cc32)CC1,6,-9,-7,0,-2,i,nt,nt,
CCCn1c(N)c(C(=O)CN(C)CC(=O)Nc2ccc(F)cc2)c(=O)[nH]c1=O,-12,nt,-4,2,4,nt,nt,nt,
CN(CCCC(=O)Nc1ccc(Br)cc1F)S(=O)(=O)c1ccccc1,-1,6,5,1,-2,i,-2,-3,
Cc1nn(-c2ccccc2)c(Cl)c1/C=C1/C(=N)N2N=C(C(C)C)SC2=NC1=O,nt,-10,12,-1,0,i,74,1,eIF4H inh retest=14;PABP FP inh retest=36
CCOC(=O)C1CCN(C(=O)CSCc2nc(-c3ccc(OCC)cc3)oc2C)CC1,nt,-6,nt,-1,-17,i,-9,-3,
CN(C)Cc1c(C(=O)N/N=C/c2cccc3ccccc23)nnn1-c1nonc1N,nt,-9,2,nt,nt,i,-4,-6,
Cc1ccc(S(=O)(=O)N2CCN(C(=O)CN3C(=O)CNC3=O)CC2)cc1,-9,-10,8,-3,3,nt,nt,nt,
Cc1ccc(NC(=O)c2sc(N)nc2-c2ccccc2)cc1C,nt,-8,-12,-1,-5,i,-8,-3,
COc1ccc(C(=O)Nc2ccccc2C(=O)N2CCN(c3ccccc3)CC2)cc1,-9,-10,-54,0,2,i,-2,-2,
Cc1ccc(Cl)cc1NC(=O)COC(=O)C1CC1,nt,nt,-4,4,18,i,-7,-5,

# Quoted at random: five records from the list
SMILES,Yeast UUG start,CSC inhib,Env fusion inh,MT1-MMP act inh,MT1-MMP act inh RFP,Rce1 inhib,eIF4H inh,PABP FP inh,others
O=C(Nc1cc2c3c(c1)C1CCCC1CN3CC1CCCC21)c1ccccc1 (stereo not given),-7,-14,40,-8,-7,i,10,29,
COc1ccc(S(=O)(=O)NCc2ccccn2)cc1Br,-6,3,-45,-3,2,i,2,0,
Nc1c(-c2cccc(Cl)c2)cnn1-c1cccc([N+](=O)[O-])c1,-12,7,25,2,-2,i,-6,7,
COc1ccc(/C=C/C(=O)NNC(=O)c2cc(C)oc2C)cc1,-14,nt,nt,4,3,i,nt,nt,
CCOC(=O)C1CCN(C(=O)CN2C(=O)CSc3ccc(S(=O)(=O)N4CCOCC4)cc32)CC1,6,-9,-7,0,-2,i,nt,nt,
